Screening results (PubChem)
RE007 growth inh: less growth of the S. pombe RE007 Vpr strain | AID 651644 | Potency, µM (titrated, usually from 92.2 µM), without a hit: at the top dose activity change, negative = less growth | S. pombe RE007 Vpr strain, BacTiter-Glo ATP luminescence, 24 h; control for the full effect not named in the record | actives 0.21% (n = 360,000); active = well fitted falling curve with a large enough effect; inconclusive = small, poorly fitted or top-dose-only effect; inactive = no such curve, though single readings can be large or run the other way;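 also: nearly all actives have a fitted effect of over 50% in size; the assay follows cell death caused by Vpr and the record does not say whether a fall means rescue or toxicity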
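Fission yeast RE007 carrying one integrated HIV-1 vpr copy, seeded at OD 0.01 in PMG+AL medium with 23 nL pinned compound. Grown 24 h at 30 degrees; viability read by BacTiter-Glo luminescence after 5 min.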
StopGo reporter: FMDV 2A StopGo reporter, luciferase signal | actives 1.2% (n = 410,000) | human cells with a luciferase reporter of 2A StopGo recoding; control for the full effect not named in the record | Potency, µM (highest dose often 57.9 µM), for the others: at the highest dose signal change, negative = less light; active = well fitted falling curve with a large enough effect; inconclusive = small, poorly fitted or top-dose-only effect; inactive = no such curve, though single readings can be large or run the other way; tested in HEK293T cells; also: nearly all actives have a fitted effect of over 45% in size; luciferase light after 4 h
* = called active by the depositor; ? = inconclusive; [ ] = another dose, or the depositor's remark. % is scaled to controls: 0 for no effect and ±100 for the full control effect; potency is read from the fitted curve at half-maximal effect. Not all compounds are listed, so the mix of outcomes need not match the whole.

SMILES	RE007 growth inh	StopGo reporter
CCOC(=O)C1(C#N)C(=O)CSC1=Nc1ccccc1Cl (stereo not drawn)	-13%	12%
CCCc1ccc(C(O)c2ncc(-c3cccc(C)c3)[nH]2)cc1 (stereo not drawn)	6%	36%[activator]
Clc1ccc2nc3ccccc3cc2c1	-16%	34%[activator]
COc1cc(CNC(=O)c2cc(-c3ccc(OC)cc3C)n[nH]2)cc(OC)c1	17%	-21%
COc1ccccc1CNC(=O)C1(C)CCN1Cc1ccc(OC(F)(F)F)cc1 (stereo not drawn)	8%	-1%
CCOC(=O)[C@]12Cc3ccccc3[C@H]1N(CCC(=O)OC)C(=O)c1ccccc12	-2%	?
CCOC(=O)C1=CCN(S(=O)(=O)c2ccc(Cl)cc2)C1c1cccc(C)c1 (stereo not drawn)	0%	-27%
C=Cc1ccc(Cn2c(C)c(C(=O)NCc3ccc4c(c3)OCO4)sc2=O)cc1	16%[18.4 µM]	-24%
CC(C)(C)c1cc(CCC(=O)Nc2ccncc2)cc(C(C)(C)C)c1O	-5%	-7%
Cc1ccc(C)c(N2CCN(C(C(=O)NC3CCCC3)c3ccco3)CC2)c1 (stereo not drawn)	1%	?
C#CCOCCOCCOCCNc1nc(N2CCN(C(=O)Cn3cc(CCO)nn3)CC2)nc(N2CCN(C(=O)[C@H]([C@@H](C)CC)n3cc(CCCN=C(N)N)nn3)CC2)n1	5%	-21%
COc1ccc(C(=O)COC(=O)c2cc(=O)c3ccccc3o2)c(OC)c1	9%	22%
CCCCn1nnnc1C1(C)CCC(=O)N1Cc1ccc(F)cc1 (stereo not drawn)	14%	-19%
Cc1ccc(Cc2c(-c3ccc(C)cc3)nc3c4ccccc4ccn23)cc1	-3%	27%
C[C@H]1CN([C@@H](C)CO)S(=O)(=O)c2ccc(Br)cc2O[C@H]1CN(C)C(=O)Cc1ccccn1	-1%	-17%
COc1cccc(NC(=O)C2CCOC2=O)c1 (stereo not drawn)	-4%	-16%
CCc1nc2c(OCC(=O)c3ccc(Cl)cc3Cl)cccn2c1N(C=O)Cc1ccccc1	-15%	-7%
O=C(C1CCCCC1)N1C[C@@H](O)[C@H](n2cc(C3CC3)nn2)C[C@@H]1c1ccc(Cl)cc1	-6%	?
O=C1c2ccccc2-n2nnc(-c3ccccc3)c2C2c3ccccc3CCN12 (stereo not drawn)	4%	-24%
Cc1cccc(C)c1NC(=O)C1(C)CSCC(=O)N1CCOc1ccccc1 (stereo not drawn)	-1%	-9%
COCCN(Cc1ccc(OC)cc1)c1c(C)nc2ccc(C(=O)Nc3ccc(NC(C)=O)cc3)cn12	0%[18.4 µM]	-11%
Cc1ccccc1-c1csc(C(O)c2ccc(F)c(F)c2)n1 (stereo not drawn)	-10%	18%
Cc1ccc(NC(=O)c2cc(S(=O)(=O)N3CCCCC3)ccc2N2CCOCC2)cc1	5%	3%
COc1ccccc1CN(C)C[C@@H]1OCc2cnnn2CCCC(=O)N([C@@H](C)CO)C[C@H]1C	0%	?
COC(=O)[C@@H](NS(=O)(=O)c1ccc(F)cc1Br)C(C)C	-15%	-22%
CCCCn1c(N)c(N(CCOC)C(=O)CCS(=O)(=O)c2ccc(C)cc2)c(=O)[nH]c1=O	8%	-1%
CCN1CCN(C(C(=O)NC2CCCCC2)c2ccnc3ccccc23)CC1 (stereo not drawn)	-6%	-9%
COC(=O)c1cc(-c2ccccc2)n(CCN)c1C	-13%	-10%
COc1cccc(NC(=O)c2cc(-c3ccc(OC)cc3OC)nc3ccccc23)c1	0%	-5%
COc1cccc(C(=O)N2CCC2(C)C(=O)NC(C)C)c1 (stereo not drawn)	7%[18.4 µM]	-18%
CCOc1ccc(CCN2C(=O)C(=O)N([C@@H](Cc3ccc(O)cc3)CN3CCC[C@@H]3CN3C(=O)C(=O)NC[C@@H]3Cc3ccccc3)C[C@@H]2Cc2ccccc2)cc1	10%	16%
COC(=O)C1=C(c2ccccc2)C[C@@H]2CC[C@H]1N2C(=O)NCc1ccco1	-3%	-19%
COc1ccc(-c2cnc(C(O)c3ccc(C(C)(C)C)cc3)[nH]2)cc1 (stereo not drawn)	2%[18.4 µM]	-4%
CCOC(=O)N1CCN(C(c2ccnc3ccccc23)c2nnnn2-c2ccc3c(c2)OCCO3)CC1 (stereo not drawn)	-17%	-19%
CCOC(=O)C1(C)CCN1C(=O)c1cc2ccccc2s1 (stereo not drawn)	17%	0%
CSc1ncnc2c1ncn2CCCNCc1ccco1	4%	-6%
O=S1(=O)C[C@H](N2CCN(CCO)CC2)[C@@H](COCc2ccccc2)N1	2%	-2%
CC(C)(C)NC(=O)C(c1cccc2ccccc12)n1c(=O)c(-c2ccccc2)nc2ccccc21 (stereo not drawn)	-28%	-2%
C[C@H](CO)N1C[C@H](C)[C@@H](CN(C)C(=O)NC2CCCCC2)Oc2ncc(Br)cc2C1=O	-12%	7%
COc1cc(C(=O)NC2CCN(C)CC2)ccc1Nc1ncc2c(n1)N(C1CCCCC1)CCC(=O)N2C	-14%	31%[activator]

Reformatted: 2 of the compounds above
Values run as follows: RE007 growth inh, StopGo reporter
> O=S1(=O)C[C@H](N2CCN(CCO)CC2)[C@@H](COCc2ccccc2)N1
 : 2%, -2%
> CCOc1ccc(CCN2C(=O)C(=O)N([C@@H](Cc3ccc(O)cc3)CN3CCC[C@@H]3CN3C(=O)C(=O)NC[C@@H]3Cc3ccccc3)C[C@@H]2Cc2ccccc2)cc1
 : 10%, 16%

(next part)
SMILES	RE007 growth inh	StopGo reporter
Cc1cccc(C(=O)Nc2ccc(C(=O)c3ccncc3)cc2)c1	-10%	?
O=C(NC1CC1)c1[nH]c(C(F)(F)F)nc1-c1ccccc1	5%	-21%
COCCNc1nc(-c2ccccc2CO)c2sc(-c3ccccc3)cc2n1	1%	-10%
O=C(C[C@H]1CC[C@H]2[C@@H](COC[C@@H](O)CN2C(=O)c2cnccn2)O1)NCc1ccc(Oc2ccccc2)cc1	6%	-14%
Cc1cc(C)c(N2C(=O)CC(Sc3ccccc3N)C2=O)c(C)c1 (stereo not drawn)	-23%	0%
CC(Sc1nnc(-c2ccccc2F)n1C)C(=O)Nc1ccc(N2CCOCC2)cc1 (stereo not drawn)	-12%	-9%
CCCCN1C[C@H](C)[C@@H](CC(=O)NC)C1=O	-16%	0%
COC1CC(NC(C)=O)C(OC(=O)c2ccccc2)C(CBr)O1 (stereo not drawn)	1%	0%
Cc1cccc(OCc2nnc(SCC(=O)NCc3ccc4c(c3)OCO4)o2)c1	11%	-13%
O=C(Nc1ccc2c(c1)OCCO2)C1C(c2ccccc2)=Nc2ccccc2N1C(=O)c1cccnc1 (stereo not drawn)	9%	14%
C[C@H]1CN([C@@H](C)CO)C(=O)c2c(c3ccccc3n2C)-c2ccccc2CO[C@H]1CN(C)C(=O)[C@@H]1CCCN1C	-8%	-7%
CC(Nc1ccc(Br)cc1)C(=O)NC(=O)NC1CCCCC1 (stereo not drawn)	7%	-19%
CCc1nc2ccc(C(=O)Nc3cccc(OC)c3)cn2c1N(CC)CCN(C)C	-12%[18.4 µM]	-9%
COc1cccc(CC(=O)Nc2cc(S(=O)(=O)N3CCOCC3)ccc2N2CCN(C)CC2)c1	-1%	1%
COC(=O)CN1C(=O)COc2ccc(S(=O)(=O)N3CCCCC3)cc21	5%	-12%
CC(=O)NC(C)(c1ccccc1)c1nc(-c2cccc3cccnc23)cs1 (stereo not drawn)	-5%	-20%
CC(C)(C)c1ccc(C(O)c2ncc(-c3ccc4ccccc4c3)[nH]2)cc1 (stereo not drawn)	-6%[18.4 µM]	-1%
CCN(CC)C(=O)c1ccc2sc([C@@H]3O[C@H](CO)[C@H](O)[C@H](O)[C@H]3O)nc2c1	8%[18.4 µM]	-9%
O=C1c2c(-c3ccc(Br)cc3)noc2CCN1Cc1cn(Cc2cccnc2)nn1	-1%	?
CC(C)CNC(=O)C1(C)CCCN1C(=O)c1cncc(Br)c1 (stereo not drawn)	10%[18.4 µM]	-16%

One compound at a time, from the list above. Values in the order: RE007 growth inh	StopGo reporter
Results for CC(=O)NC(C)(c1ccccc1)c1nc(-c2cccc3cccnc23)cs1 (stereo not drawn) → -5%	-20%
Results for CCc1nc2ccc(C(=O)Nc3cccc(OC)c3)cn2c1N(CC)CCN(C)C → -12%[18.4 µM]	-9%
Results for O=C1c2c(-c3ccc(Br)cc3)noc2CCN1Cc1cn(Cc2cccnc2)nn1 → -1%	?
Results for C[C@H]1CN([C@@H](C)CO)C(=O)c2c(c3ccccc3n2C)-c2ccccc2CO[C@H]1CN(C)C(=O)[C@@H]1CCCN1C → -8%	-7%

Following part:
SMILES	RE007 growth inh	StopGo reporter
COc1ccc(C(=O)N2CCOC2CNC(=O)C(=O)NCc2ccccc2)cc1 (stereo not drawn)	16%	-19%
CCOC(=O)C1(C)CCN1C(=O)c1ccc(OC)cc1OC (stereo not drawn)	5%[18.4 µM]	-2%
CC1(C(=O)NCc2cccc(C(F)(F)F)c2)CCN1Cc1ccc2ccccc2c1 (stereo not drawn)	1%[18.4 µM]	0%
CC1(C(=O)NS(=O)(=O)c2ccc(Cl)cc2)CCN1C(=O)Cc1ccccc1 (stereo not drawn)	-7%	4%
CN1CCN(C(=O)C2=NOC3(C2)C(=O)Nc2ccccc23)CC1 (stereo not drawn)	46%	-19%
CCc1nc2ccc(C(=O)NCCN3CCOCC3)cn2c1N(CCC(C)C)CCN(C)C	-11%	-1%
CCOC(=O)c1cc(=O)nc(N)s1	-13%	-12%
CN(Cc1ccccc1)C(=O)Cn1nnc(-c2ccccc2)c1COc1ccc2ccccc2c1	11%	-25%
CCCCNC(=O)C1(C)CCCCN1C(=O)c1ccc(C#N)cc1 (stereo not drawn)	31%[18.4 µM]	-5%
COc1cc(-c2cc3nc(NCCc4ccc(S(N)(=O)=O)cc4)ccn3n2)cc(OC)c1OC	-10%	?

Ordered by length of the SMILES (descending): 3 of the compounds above
SMILES	RE007 growth inh	StopGo reporter
Cc1cccc(C)c1NC(=O)C1(C)CSCC(=O)N1CCOc1ccccc1 (stereo not drawn)	-1%	-9%
COc1cccc(C(=O)N2CCC2(C)C(=O)NC(C)C)c1 (stereo not drawn)	7%[18.4 µM]	-18%
CCOC(=O)C1(C)CCN1C(=O)c1cc2ccccc2s1 (stereo not drawn)	17%	0%

(listing goes on)
SMILES	RE007 growth inh	StopGo reporter
CC(C)C[C@H]1CN([C@@H](CC(C)C)CN2CCC[C@H]2CN2C(=O)C(=O)NC[C@@H]2Cc2ccccc2)C(=O)C(=O)N1CCc1ccccc1	6%	-9%
Cc1ccc(-n2ncc(-c3n[nH]c(=S)o3)c2N)cc1C	11%	24%
CCCCCCCCN1C(=O)[C@H](CC(=O)N2CCN(C(=O)c3ccco3)CC2)C[C@@]2(C(=O)OC)CC(C)(C)CC=C12	?	-23%
COc1cc(CNC[C@H]2O[C@@H](n3ccc(N)nc3=O)[C@H](O)[C@@H]2O)ccc1OCc1ccc(C)cc1	-18%	-23%
O=S1(=O)CCOC[C@H](Cc2ccccc2)N1Cc1cccc(C(F)(F)F)c1	-13%	0%
O=c1cc(CN2CCN(c3ccccc3F)CC2)c2c(ccc3ccccc32)o1	4%	-28%
COc1ccc(CCCNC(=O)C2(C)Cc3c(-c4ccc5c(c4)OCO5)ccnc3O2)cc1 (stereo not drawn)	5%	?
COc1ccc(CN2C(=O)c3ccccc3C2c2nnnn2-c2c(C)cccc2C)cc1OC (stereo not drawn)	8%	9%
CCC(C)CN1C(=O)CSCC1(C)C(=O)Nc1ccc2c(c1)OCCO2 (stereo not drawn)	1%	-8%
O=C([O-])c1cc(-c2ccccc2)cc(-c2ccccc2)[n+]1CCc1ccc(Cl)cc1	-13%	35µM*
COCCCN1C(=O)C(CC(=O)NCCN2CCOCC2)CC(C(=O)N(C)C)=C1C (stereo not drawn)	2%	-16%
CCC1NC(=O)c2cccnc2-n2c1nc1ccc(F)cc1c2=O (stereo not drawn)	-1%	?
OC(c1cccc(CN2CCCCC2)c1)c1ncc(-c2ccccc2Cl)[nH]1 (stereo not drawn)	-7%	0%
COc1cccc(CNC(=O)c2ccc(S(=O)(=O)N3CCCCC3)cc2)c1	5%	-23%
COc1ccccc1CC1(C)C(=O)Nc2ccc(S(=O)(=O)NC3CCCCC3)cc21 (stereo not drawn)	-2%	47%[activator]
CCOc1ccc(CCN2C(=S)N([C@@H](Cc3ccccc3)CN3CCC[C@@H]3CN3C(=S)NC[C@@H]3CC(C)C)C[C@@H]2Cc2ccccc2)cc1	4%	-15%
CS(=O)(=O)N1CCCCC1c1cc(C(=O)Nc2ccccc2Cl)no1 (stereo not drawn)	10%	35%[activator]
CCCc1c(C(=O)N/N=C(\C)c2ccccc2O)nnn1-c1nonc1N	-5%	-9%
CC1(Cc2cc(Cl)ccc2C(F)(F)F)C(=O)Nc2ccc(OC(F)(F)F)cc21 (stereo not drawn)	-7%	?
COc1ccc(C(O)c2nc(-c3ccc4c(c3)OCO4)cs2)cc1 (stereo not drawn)	-8%	14%
